High-throughput results deposited in PubChem by several laboratories.
Mtb H37Rv – M. tuberculosis H37Rv growth inhibitors, H37Rv strain (AID 1626). one-dose inhibition, % at 10 µM; IC50 in µM for titrated hits. actives 0.95% (n = 220,000). M. tuberculosis H37Rv growth inhibition; higher % means a stronger effect;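 active = confirmed in a dose series; inconclusive = inhibition above 80% but not taken into the dose series; inactive = below 80% or under 30% at every dose of the series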;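 note: bacteria incubated seven days before Alamar blue readout; 0% = bacteria only wells and 100% = bacteria with antibiotic wells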
Mtb betalactam – beta-lactam sensitization of Mtb H37Rv. M. tuberculosis H37Rv growth with meropenem, percent inhibition; hits of this screen are not shown here. inhibition, % at 25 µM. actives 0.27% (n = 330,000);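 active = about 74% or more and at least 40 points above the plate without the antibiotic, then above 30% in a dose series; inconclusive = first-round hits that could not be retested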;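 note: growth measured after seven days incubation then overnight dye step; 0% = bacteria only wells and 100% = bacteria with antibiotic; twin plates without the antibiotic show which effects depend on it; some results filed as inactive read as strong as hits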
RecA splice inh – Mtb RecA intein splicing inhibition. cell-free RecA intein splicing, fluorescence. inhibition, %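 (about 9 µM by stock and volumes)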. actives 0.75% (n = 290,000). AID 2221; in the data active = inhibition above about 30%; inconclusive = no clear call, values can overlap the other calls;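 note: 0% = vehicle wells and 100% = reference inhibitor control wells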
Target sequence (P9WHJ3 whole entry, looked up, canonical isoform): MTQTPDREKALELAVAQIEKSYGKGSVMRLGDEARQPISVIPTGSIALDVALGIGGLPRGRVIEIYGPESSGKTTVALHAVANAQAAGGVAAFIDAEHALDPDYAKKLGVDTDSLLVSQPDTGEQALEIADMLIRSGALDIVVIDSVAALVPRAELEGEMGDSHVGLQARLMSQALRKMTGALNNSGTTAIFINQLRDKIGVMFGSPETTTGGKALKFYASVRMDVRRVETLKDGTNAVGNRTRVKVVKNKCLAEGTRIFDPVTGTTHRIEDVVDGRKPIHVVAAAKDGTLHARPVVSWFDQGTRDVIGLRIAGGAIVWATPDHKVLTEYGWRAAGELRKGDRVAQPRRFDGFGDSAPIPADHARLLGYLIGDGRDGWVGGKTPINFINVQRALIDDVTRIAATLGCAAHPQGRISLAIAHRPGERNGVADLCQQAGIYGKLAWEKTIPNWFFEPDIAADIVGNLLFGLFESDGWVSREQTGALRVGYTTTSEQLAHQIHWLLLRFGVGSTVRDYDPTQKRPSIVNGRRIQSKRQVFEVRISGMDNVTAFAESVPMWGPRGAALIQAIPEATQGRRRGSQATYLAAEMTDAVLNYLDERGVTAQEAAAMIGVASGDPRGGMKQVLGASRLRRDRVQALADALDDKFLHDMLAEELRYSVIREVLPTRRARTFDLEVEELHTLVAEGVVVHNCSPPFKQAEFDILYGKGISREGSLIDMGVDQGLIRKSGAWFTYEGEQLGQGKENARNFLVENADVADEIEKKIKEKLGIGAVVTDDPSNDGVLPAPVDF
YopH PTP inh – blocks Yersinia enterocolitica YopH tyrosine phosphatase. actives 0.16% (n = 140,000). inhibition, %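 (about 10 µM by stock and volumes)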. fluorescence Ex485/Em525. AID 898;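 active = inhibition of 50% or more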;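 note: controls were vehicle for no effect and minimum signal wells for full effect; inactives centre near -20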
Arbovirus anti – arbovirus infection inhibition. inhibition, % at 10 µM. actives 0.37% (n = 200,000). arbovirus infection cell-based antiviral screen;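 active = inhibition from about 30%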;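 note: bluetongue infection of BSR cells; cell survival read as ATP light after 72 h; 0% = infected wells without compound and 100% = uninfected wells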
Arbovirus anti repeat – second read-out of Arbovirus anti, no call of its own (marks repeat the call); inhibition, %; measured here: 10K subset replicate screen; many hits read low in the repeat;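 first of two repeat runs on a subset; 0% = infected and 100% = uninfected wells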
Starred values were filed as active, the others as inactive; ? = inconclusive; . = not tested or not shown.

SMILES	Mtb H37Rv	Mtb betalactam	RecA splice inh	YopH PTP inh	Arbovirus anti	others
Cc1ccc(-n2c(=O)c3ccccc3n(CC(=O)C(C)(C)C)c2=O)cc1	8%	1	5.1	.	-9
O=C(CC1SC(N2CCCC2)=NC1=O)Nc1ccc(C(=O)Nc2ncccc2O)cc1 (centres undefined)	.	0	3.3	.	.
CCOC(=O)N1CCN(C(=O)Cn2nc(-c3ccc(Cl)cc3)ccc2=O)CC1	.	0	0.8	-43	0
O=C(NN=C1CCCCC1)Nc1ccccc1Cl	.	-1	-0.6	.	.
COc1ccc(NC(=O)c2ccc(-c3ccc([N+](=O)[O-])cc3)o2)cc1	>100µM*	87	1.7	.	-12
O=C(NCN1CCN(c2ccccc2F)CC1)c1ccccc1	1%	4	-3.6	-8	-3
Cc1cc(C)nc(-n2nc(C)c3c(C)c(C)c(C)nc32)n1	-9%	.	.	-8	1
O=C(Nc1nc2c(s1)CCCC2)c1ccc(S(=O)(=O)N2CCCc3ccccc32)cc1	17%	3	-1.7	-23	-5
CCc1cc(=O)oc2c(C)c(OC(C)C(=O)N3CC[C@@]4(O)CCCC[C@H]4C3)ccc12 (some centres undefined)	.	-8	-1.4	.	.
CC(=O)N(Cc1cccs1)Cc1cc2cc(C)c(C)cc2nc1Cl	-4%	2	1.4	.	-10
COc1ccc(NC(=O)N2CCCc3cc(C)ccc32)c(OC)c1	.	69	1.4	.	.
CC(NC(=O)CCSc1nc(-c2ccc3c(c2)OCO3)cc(C(F)(F)F)n1)c1ccccc1 (centres undefined)	2%	2	1.1	-12	-3
CN(C(=O)Oc1ccc(Cl)c2cccnc12)c1ccccc1	2%	1	0.1	-25	5
O=C(NC1CCCC1)C1CC(=O)N(C2CCCCCCC2)C1 (centres undefined)	-3%	2	2.8	-27	0
Oc1ccc(C2Nc3cccc4cccc(c34)N2)c(O)c1	7%	-3	5.1	6	5
O=C(CCS(=O)(=O)c1ccc(Br)cc1)NC1CCCCCC1	.	-1	-2.2	.	.
Cn1c(CC(=O)Nc2ccccc2F)nnc1SCC(=O)N1CCOCC1	.	-21	1.6	.	.
CCCCC(=O)N/N=C/c1ccc(N2CCOCC2)c([N+](=O)[O-])c1	10%	-2	-3.1	-19	-9
CC(=O)NCCNc1ccc([N+](=O)[O-])cc1C#N	2%	-7	1.3	.	5
OC1CCN(Cc2ccc3ccccc3c2)CC1	.	-1	-1.1	.	.
Cc1ccc(-n2ncc3ccccc3c2=O)cc1Cl	-5%	1	-2.3	.	-4
CCN1c2nc3c(C)cccn3c(=O)c2CC2(C(=O)N(C)C(=O)N(C)C2=O)C1C (centres undefined)	-1%	7	-2.7	-39	2
COCCNc1nnc(SCC(=O)Nc2cc(-c3ccccc3)nn2-c2ccccc2)s1	6%	2	-1.1	-8	5
CN(C)N=Nc1nc2c([nH]1)c(=O)n(C)c(=O)n2C	-1%	-2	0.1	.	.
O=C1OCCN/C1=C\C(=O)c1ccccc1	-7%	-2	.	.	.

Molecules shown so far that have a nitro group on carbon (3):
SMILES	Mtb H37Rv	Mtb betalactam	RecA splice inh	YopH PTP inh	Arbovirus anti	others
COc1ccc(NC(=O)c2ccc(-c3ccc([N+](=O)[O-])cc3)o2)cc1	>100µM*	87	1.7	.	-12
CCCCC(=O)N/N=C/c1ccc(N2CCOCC2)c([N+](=O)[O-])c1	10%	-2	-3.1	-19	-9
CC(=O)NCCNc1ccc([N+](=O)[O-])cc1C#N	2%	-7	1.3	.	5

Fetched by compound from the list above (three):
SMILES	Mtb H37Rv	Mtb betalactam	RecA splice inh	YopH PTP inh	Arbovirus anti	others
CC(=O)N(Cc1cccs1)Cc1cc2cc(C)c(C)cc2nc1Cl	-4%	2	1.4	.	-10
O=C(NCN1CCN(c2ccccc2F)CC1)c1ccccc1	1%	4	-3.6	-8	-3
Cc1ccc(-n2c(=O)c3ccccc3n(CC(=O)C(C)(C)C)c2=O)cc1	8%	1	5.1	.	-9

(further entries)
SMILES	Mtb H37Rv	Mtb betalactam	RecA splice inh	YopH PTP inh	Arbovirus anti	others
CSc1nc(O)c(C(c2ccccc2Cl)c2c(O)nc(SC)[nH]c2=O)c(=O)[nH]1	.	1	-1.2	.	.
O=C(NCCS(=O)(=O)N1CCN(c2ccc(F)cc2)CC1)c1ccc(Br)o1	.	5	0.4	.	.
CC1CCCCN1S(=O)(=O)c1ccc(C(=O)Nc2ccccc2-c2nc3ccccc3[nH]2)cc1 (centres undefined)	6%	?	-1.8	-5	4
COc1ccc(N2CCN(S(=O)(=O)c3cn(C)c(=O)n(C)c3=O)CC2)cc1	1%	-11	-4.8	.	.
Cc1ccccc1C(=O)OCc1cnc(Cl)s1	1%	0	-0.2	.	6
CC(C)(C)NC(=O)C(c1cccs1)N(C(=O)c1csnn1)c1ccccc1F (centres undefined)	-8%	5	2.6	.	-1
Cc1ccnc(NS(=O)(=O)c2ccc(NC(=O)CCS(=O)(=O)c3ccccc3)cc2)n1	-4%	-6	-0.8	.	12
N#CCCn1cnc2ccccc21	-7%	-4	1.5	-18	7
Nc1ncnc(Nc2ccc(F)cc2)n1	-5%	-1	15	-17	-1
CCc1ccc2[nH]c(=O)c(CN(Cc3ccccc3)C(=O)Nc3ccccc3OC)cc2c1	8%	-9	15	-1	-5
O=C(COc1ccccc1Cl)NCCCNC(=O)c1ccccn1	.	6	0.0	.	.
O=C(CCC(=O)c1cccs1)OCC(=O)N1CCN(S(=O)(=O)c2ccccc2)CC1	-3%	-4	1.4	-8	1
COCCN1CCN(Cc2cn[nH]c2-c2cc3ccccc3o2)CC1	-1%	-4	1.2	.	-1
CCc1noc(C)c1C(=O)Nc1nc2c(C)cccc2s1	.	35	0.7	.	.
O=C(CN(Cc1cccs1)C(=O)CNS(=O)(=O)c1ccc(Cl)cc1)NCc1ccco1	-2%	-6	-3.0	-33	5
Cc1ccc(S(=O)(=O)N(C)c2ccc(C(=O)N3CCC(C(N)=O)CC3)cc2)cc1	0%	2	.	-106	-5
O=C(COC(=O)CCc1c[nH]c2ccccc12)Nc1ccc([N+](=O)[O-])cc1	7%	-1	-5.1	-26	2
COC(=O)c1cnn(-c2cc(Oc3cccc(C)c3)ncn2)c1N	2%	-5	-2.4	13	-10
CN(C)c1cc(N/N=C\c2ccccc2)nc(N(C)C)n1	6%	9	6.1	.	-9
Clc1ccc(CN2CCCCCCC2)cc1	7%	4	-1.7	12	1
O=C(/C=C/c1cccs1)N1CCc2ccccc21	60%	35	3.9	6	-8
CCN(CC)S(=O)(=O)c1ccc(NC(=O)COC(=O)CCc2cc(OC)c(OC)c(OC)c2)cc1	-10%	4	1.5	-41	9
CC(=O)Nc1ccc2c(c1)NC(=O)CC2	4%	-10	-3.9	.	-4
C=CCn1c(=N)n(CC(=O)O)c2ccccc21	49%	-1	-0.2	-47	8
CCCCCCn1c(C(C)NC(=O)c2ccco2)nc2ccccc21 (centres undefined)	4%	-1	3.2	6	0
(more compounds)
SMILES	Mtb H37Rv	Mtb betalactam	RecA splice inh	YopH PTP inh	Arbovirus anti	others
O=C(CNC(=S)N(Cc1ccccc1F)C1CCCCC1)NCCCN1CCOCC1	-8%	-7	1.5	.	8
CC(C)(C)N1C(=O)[C@H]2[C@@H](c3ccc(Br)cc3)N3C(=O)N(c4ccc(Br)cc4)C(=O)[C@@]3(Cc3ccccc3)[C@H]2C1=O	.	0	1.2	.	.
O=C(c1ccc(Cn2c(=S)[nH]c3ccc(Br)cc3c2=O)cc1)N1CCN(C2CCCCC2)CC1	?	99	0.8	.	-7
COc1ccc2nc(-c3cccc(N)c3)[nH]c2c1	1%	4	1.9	-17	-18
O=C(CCC(=O)Nc1ccccc1Cl)NN=C1CCCC1	.	-4	-2.4	.	.
CCCCCCC(=O)OCC(=O)c1ccc2c(c1)NC(=O)CO2	16%	9	4.5	.	2
Cc1nn(-c2ccccc2)cc1/C=N/NC(=O)c1cccs1	0%	55	0.0	.	.
COc1cccc(NC(=O)Cn2cc(C#N)c3ccccc32)c1	-2%	-8	2.6	34	-2
O=C(O)c1ccccc1-c1ccccc1C(=O)Nc1cccc2ccccc12	-5%	2	1.6	-21	6
COc1ccc(OC)c2[nH]c(=O)c(CCNC(=O)C3CCCCC3)cc12	4%	-5	-1.0	-45	-3
O=C1CC(Nc2ccc(N3CCOCC3)cc2)C(=O)N1c1ccccc1F (centres undefined)	1%	7	0.2	-51	-3	Arbovirus anti repeat=-5
O=C(c1ccc(CS(=O)Cc2ccc(Cl)cc2)o1)N1CCN(c2cccc(Cl)c2)CC1 (centres undefined)	.	59	12	.	.
CN(CCc1ccccn1)C1CC(=O)N(c2ccc(Cl)cc2)C1=O (centres undefined)	-6%	33	2.1	7	3
Cn1c(=O)[nH]c(=O)c2c1nc(N1CCCC1)n2CCO	.	-4	-6.0	.	.
COc1cc(-c2nnc(NC(=O)CCS(=O)(=O)c3ccccc3)o2)cc(OC)c1OC	.	28	-0.9	.	.
CCC(=NCCOc1ccc(Cl)cc1)c1c(O)n(C)c(=O)n(C)c1=O	.	2	12	-22	-3
CC(C)(C)n1nnnc1C(c1cccs1)N1CCN(C(=O)c2ccco2)CC1 (centres undefined)	1%	0	-1.2	-4	9
COC(=O)c1ccc(CSc2nnc3c(n2)[nH]c2ccccc23)cc1	2%	-7	-0.8	.	.
CCOC(=O)C(C)Oc1cccc2c(=O)n(CC(=O)N3CCCc4ccccc43)ccc12 (centres undefined)	3%	0	-6.5	-46	2
COc1ccccc1C(=O)NC(C)c1nc2ccccc2[nH]1 (centres undefined)	-11%	-2	0.6	-38	0	Arbovirus anti repeat=-3
COc1cc(NS(=O)(=O)c2ccc(NS(=O)(=O)c3ccc(C)cc3)cc2)nc(OC)n1	.	-2	-2.7	.	.
Cc1sc(NC(=O)CN(Cc2ccc(F)cc2)C(=O)C(C)C)c(C(N)=O)c1C	-12%	6	-1.5	-41	3
O=C(Nc1c(Cl)cccc1Cl)c1ccc(-c2ccccc2)cc1	-3%	-1	2.9	-29	7
CCOC(=O)CNC(=O)c1cccs1	-2%	-4	8.7	-27	3
COc1nc(N/N=C/c2ccccc2F)nc(N2CCCCC2)n1	0%	?	-1.6	-28	-8

The list goes on, starting with the last 3 of the part before.
SMILES	Mtb H37Rv	Mtb betalactam	RecA splice inh	YopH PTP inh	Arbovirus anti	others
O=C(Nc1c(Cl)cccc1Cl)c1ccc(-c2ccccc2)cc1	-3%	-1	2.9	-29	7
CCOC(=O)CNC(=O)c1cccs1	-2%	-4	8.7	-27	3
COc1nc(N/N=C/c2ccccc2F)nc(N2CCCCC2)n1	0%	?	-1.6	-28	-8
O=C(Nc1ccncc1)c1ccc(F)cc1	-14%	-2	-0.7	-15	2
CS(=O)(=O)NCc1ccc(C(=O)O)cc1	-2%	2	-2.0	.	9
CCc1ccc(/C=N/n2c(COc3ccccc3)n[nH]c2=S)cc1	.	?	1.8	.	.
Cc1cccc(NC(=S)N=Nc2c(O)n(C)c3ccc(S(=O)(=O)N4CCOCC4)cc23)c1	3%	7	2.5	-27	-4
CN(CC(=O)Nc1ccc(F)cc1)CC(=O)Nc1ccc(F)c(F)c1F	6%	-3	-0.6	.	12
CCOC(=O)NC(=O)C(=CNc1cccc(OC)c1)C(=O)NC(=O)OCC	-2%	-11	.	-29	4
CC(C)OCCCn1c(=O)c2ccccc2n2c(CCC(=O)N3CCN(c4ccccn4)CC3)nnc12	.	-7	-1.3	.	.
O=C(CSc1nnc(Cc2cc(=O)[nH]c(=O)[nH]2)n1-c1ccccc1)N1CCCc2ccccc21	2%	-10	.	-28	3
CCCCS(=O)(=O)NC1=NCN(CCO)CN1	2%	-8	-4.5	-28	10
O=C(Nc1ccccc1C(=O)N1CCN(Cc2ccccc2)CC1)c1ccccn1	8%	-6	-0.4	-19	-1	Arbovirus anti repeat=2
CC(C)[C@@H]1NC(=O)N(c2ccc(Oc3ccccc3)cc2)C1=O	-6%	1	1.4	-26	-5
Cc1cc(C)c2nc(/N=C(\N)NC(=O)c3ccccc3)nc(C)c2c1	6%	48	2.3	.	.
CCc1nc(NCC(C)C)c(C#N)c2c1COC(C)(C)C2	5%	-5	-2.8	-5	-6
Cc1ccc(CCC(=O)Nc2ncc(Cc3cc(Cl)ccc3Cl)s2)o1	9%	1	3.6	-19	-27
O=C(CSC1=NNC(c2ccccn2)S1)Nc1ccccc1 (centres undefined)	-6%	-8	-4.6	.	.
CCOC(=O)c1nc2nc(-c3cccs3)cc(C(F)(F)F)n2n1	2%	0	-3.5	-35	1
CCOC(=O)N1C(=O)[C@@](c2ccc(Cl)cc2)(C(C)C)N1C(=O)OCC	.	1	49*	.	.
Cc1coc2c1c(C)cc1oc(=O)c(CC(=O)N[C@@H](CC(C)C)C(=O)O)c(C)c12	.	-4	-1.8	.	.
O=C(Oc1ccc2ccccc2c1Cl)N1CCCCCC1	19%	11	11	-15	27

These rows are one share of the data; count on the stated rates, not on these rows.
